Vif A3G: inhibitors of Vif binding to APOBEC3G peptide, primary screen, biochemical, TR-FRET, GST-Vif 1-94, biotin-A3G peptide, dose response retest (AID 1117319). inhibition, %, or IC50 in µM where a hit was titrated. Virion infectivity factor (Human immunodeficiency virus type 1 group M subtype B (isolate …. TR-FRET GST-Vif / biotin-A3G peptide binding; higher % means a stronger effect; test concentration not given here; strong numbers were not always called active. 260,000 compounds, 0.57% hits;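 active means above the screen mean plus three standard deviations and confirmed in dose response; inconclusive means results disagree or hit not tested in dose response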;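 further: Vif residues 1-94 fused to GST binding biotinylated APOBEC3G peptide 110-148; 0% = full assay without inhibitor and 100% = GST in place of GST-Vif; retest series ran down from 100 µM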
AF4-AF9 inh: inhibitors of AF4 peptide binding to AF9, primary screen, biochemical, AlphaScreen, biotin-AF4 peptide, FLAG-AF9, single point | Protein AF-9 (Homo sapiens), P42568 | inhibition, % at 10 µM | 350,000 compounds, 0.47% hits | AID 651704, 2012;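 active means every replicate reaching a set inhibition limit, whatever the replicate mean, cut at about 25% in these data; inconclusive means mean inhibition reaches that limit but some replicates miss it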;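 further: 0% = plate neutral control median and 100% = total signal loss; the record names both 10 and 1 µM as test concentration; the first replicate is given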
A1 inh: caspase 3/7 activation in MEF A1-2A-BIM cells, primary screen, A1 inhibitor project, cell-based, luminescence, HTS; caspase activation, % (test concentration not listed); AID 2462, 2010; Caspase-Glo 3/7 luminescence, 3 h; percent of clofoctol response, vehicle zero; 330,000 compounds, 0.066% hits;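 active means over half of replicate activation scores above 10%, or exactly half above 10 with the replicate mean above 10; inconclusive means replicate mean below 10 yet half the replicates above 10; inactive means over half of replicates below 10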;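 further: wells of about 30 µL received 50 nL stock; many hits fall short of the cut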
RanGTP-Imp inh: inhibitors of RanGTP-importin-beta interaction, primary screen, biochemical, FRET, CFP-Ran, YFP-importin-beta, homogeneous. cell-free CFP-Ran/YFP-importin-beta FRET ratio. AID 2216, 2009. Ran GTPase (GTP-bound) - importin-beta complex. 300,000 compounds, 1.1% hits. inhibition, % (concentration not given with the values);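 active means most replicates above 15%; inconclusive means exactly half above 15%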;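 further: 0% = DMSO wells and 100% = Ran loaded with GDP instead of GTP; wells of about 40 µL received 100 nL stock; the first replicate is given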
T cruzi inh: inhibitors of intracellular T. cruzi growth, primary screen, luminescence, NIH3T3 host cells; T. cruzi beta-gal in NIH3T3, 90 h; inhibition, % (test concentration not listed); 300,000 compounds, 1.4% hits;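 active means mean inhibition across valid replicates above about 55%, limit read from the data; inconclusive means mean below that limit but half or more replicates reach it; inactive means mean below it, under half of replicates reach it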;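 further: signal also drops with host cell toxicity which is not excluded here; 0% = plate median of DMSO wells and 100% = zero luminescence signal; higher percent means less beta-gal luminescence so fewer parasites; stock transfer was 50 nL into about 50 µL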
Beta cell apopt: inhibitors of cytokine-induced beta cell apoptosis, primary screen, luminescence | AID 435005, 2010 | 300,000 compounds, 0.8% hits | INS-1E cytokine-induced death, ATP luminescence, 48 h; percent of positive-control rescue, neutral wells zero | protection from apoptosis, % (no concentration beside the values);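 active means all replicates at 75% or more, or half of them and the mean; inconclusive means half reach 75% but not the mean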;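 further: 0% = cytokine-treated negative control wells and 100% = positive control rescue; higher means more ATP so stronger rescue from cytokine killing; wells of about 40 µL received 100 nL stock; the first replicate is given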
LANA-H2B inh: blockers of LANA interaction with H2A/H2B – biochemical, FP readout, HTS, primary screen | Protein LANA1 (Human herpesvirus 8 type P (isolate GK18)), Q9QR71 | cell-free LANA-H2A/H2B peptide, fluorescence polarization | inhibition, % (no concentration beside the values) | 320,000 compounds, 0.6% hits; in the data active means inhibition mostly above about 10%, no sharp cut-off; inactive means mostly below about 6.7%;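 further: stock transfer was 7.5 nL into about 10 µL; 0% = median of vehicle wells and 100% = median of positive control wells; one replicate is shown; the record names a cut of 25% in any replicate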
Target sequence (Q9QR71 whole entry, looked up): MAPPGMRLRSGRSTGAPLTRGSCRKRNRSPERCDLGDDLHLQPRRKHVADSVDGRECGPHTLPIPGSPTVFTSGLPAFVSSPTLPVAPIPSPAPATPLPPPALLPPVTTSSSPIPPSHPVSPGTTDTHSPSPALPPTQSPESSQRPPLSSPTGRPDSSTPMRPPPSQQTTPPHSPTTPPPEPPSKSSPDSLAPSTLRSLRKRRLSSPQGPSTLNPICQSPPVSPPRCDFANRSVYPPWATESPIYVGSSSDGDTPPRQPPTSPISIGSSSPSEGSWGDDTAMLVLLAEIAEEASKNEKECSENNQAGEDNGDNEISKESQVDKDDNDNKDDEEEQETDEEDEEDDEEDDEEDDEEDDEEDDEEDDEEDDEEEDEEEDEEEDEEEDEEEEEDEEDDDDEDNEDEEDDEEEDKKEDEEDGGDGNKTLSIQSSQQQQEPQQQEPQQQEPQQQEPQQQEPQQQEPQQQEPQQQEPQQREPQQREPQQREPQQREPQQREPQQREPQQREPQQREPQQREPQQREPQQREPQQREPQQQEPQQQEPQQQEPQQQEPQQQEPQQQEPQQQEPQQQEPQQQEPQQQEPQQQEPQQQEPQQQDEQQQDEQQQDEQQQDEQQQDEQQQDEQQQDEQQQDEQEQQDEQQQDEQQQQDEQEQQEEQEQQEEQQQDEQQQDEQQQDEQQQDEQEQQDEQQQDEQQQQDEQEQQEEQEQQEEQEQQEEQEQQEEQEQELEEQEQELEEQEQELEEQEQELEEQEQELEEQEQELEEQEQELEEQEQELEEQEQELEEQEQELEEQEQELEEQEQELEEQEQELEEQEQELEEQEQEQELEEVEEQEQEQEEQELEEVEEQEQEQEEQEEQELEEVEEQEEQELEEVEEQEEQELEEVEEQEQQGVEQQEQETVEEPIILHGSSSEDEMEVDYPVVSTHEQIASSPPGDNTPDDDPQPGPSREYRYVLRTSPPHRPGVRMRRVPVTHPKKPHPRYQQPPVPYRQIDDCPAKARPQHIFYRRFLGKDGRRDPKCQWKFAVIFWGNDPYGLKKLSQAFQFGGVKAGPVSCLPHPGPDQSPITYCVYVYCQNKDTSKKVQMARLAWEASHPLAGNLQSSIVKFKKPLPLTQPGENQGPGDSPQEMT
Calb FLC: C. albicans growth inhibition with fluconazole, primary screen, CaCi-2 strain, Alamar Blue fluorescence; C. albicans CaCi-2 (fluconazole-resistant clinical isolate) + fluconazole, 48 h; growth inhibition, % (test concentration not listed); 300,000 compounds, 0.57% hits;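 active means most replicates above 75%; inconclusive means exactly half above 75%; inactive means most below 75%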;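 further: all wells also contain fluconazole at 8 µg/ml as a sub-toxic cotreatment; 0% = median of DMSO wells and 100% = median of geldanamycin control wells; wells of about 8 µL received 7.5 nL stock; the first replicate is given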
Starred values were filed as active, the others as inactive; ? = inconclusive; · = not tested or not shown; & = joins results of further samples.

SMILES	Vif A3G	AF4-AF9 inh	A1 inh	RanGTP-Imp inh	T cruzi inh	Beta cell apopt	LANA-H2B inh	Calb FLC
COc1ccc(C(CNC(=O)c2[nH]c(C)c(C(C)=O)c2C)N2CCOCC2)cc1 (stereo not drawn)	-20%	0.8	0.1	·	·	0	-7.2	·
COc1ccc2c(c1)C1C=CCC1C(c1cc3c(cc1Br)OCO3)N2 (stereo not drawn)	?	·	-0.6	1.6	-2	-5	2.0	?
Cc1ccsc1CNc1ncnc2ccc(-c3c(C)noc3C)cc12	·	-3.9	-0.2	·	·	-12	-1.2	·
O=C(NCc1ccc2c(c1)OCO2)c1nc(S(=O)(=O)Cc2ccccc2)ncc1Cl	·	-1.3	·	0.7	-12	·	·	8
Cc1ccnc(NC(=O)C2CCCN(S(=O)(=O)c3ccc4[nH]c(=O)ccc4c3)C2)c1 (stereo not drawn)	3%	-2.2	0.0	2.8	-15	·	0.5	15
Cc1[nH]ccc(=O)c1OCc1c(Cl)cccc1Cl	10%	·	1.4	0.3	-2	·	-0.8	-5
CN1CCN(C(=O)c2ccc(C3SCC(=O)N3Cc3ccco3)cc2)CC1 (stereo not drawn)	6%	·	0.6	0.3	20	-3	0.7	·
O=C(COc1ccccc1)NCCc1cn2ccsc2n1	3%	-1.1	0.8	-0.5	-18	-6	23	0
CS(=O)(=O)Nc1ccc(C2=NN(S(C)(=O)=O)C(c3ccccc3)C2)cc1 (stereo not drawn)	6%	·	?	-0.6	-5	1	-4.2	-18
COC(=O)c1cn(Cc2ccccn2)c(=O)c2ccccc12	1%	2.3	0.2	2.5	0	-7	6.6	4
Cc1ccnc(NC(=O)CSc2nnc3c(n2)[nH]c2ccccc23)c1	?	·	0.2	-5.5	-17	-19	·	21
CCN1C(=O)N/C(=C/c2ccc(Sc3ccc(C)cc3)o2)C1=O	?	·	0.9	23*	2	-6	4.3	5
Cn1c(=O)c2c(nc(N3CCCCCC3)n2CC(O)COc2ccccc2)n(C)c1=O (stereo not drawn)	-3%	·	-0.1	-3.9	9	11	3.0	2
COCc1cc(C)nc(OCC(=O)N/N=C/c2cccc(OC)c2)c1C#N	0%	·	0.2	6.2	-3	-9	0.9	0
COc1cc(C(=S)N2CCN(C)CC2)ccc1OCC(=O)NCc1ccccc1	·	-0.5	-0.3	2.2	16	1	1.8	?
COc1cccc(CNC(=O)c2cc(S(=O)(=O)N3CCCC3)cn2C)c1	·	4.5	0.6	1.5	-5	-6	2.6	-5
O=C(c1ccc(Br)cc1)N1CCN(Cc2ccccc2)CC1	-1%	5.2	1.8	-2.3	-8	·	-1.9	6
CC(=O)Nc1ccccc1-c1nc2ccccc2nc1OCC(=O)c1ccc(Cl)cc1	16%	·	0.1	0.2	4	10	-1.9	-11
NS(=O)(=O)c1ccc(NC(=O)COC(=O)CCCN2C(=O)c3cccc4cccc(c34)C2=O)cc1	-18%	2.5	-1.1	·	·	-7	3.7	·
CCOC(=O)N1CCN(Cc2cc(=O)oc3cc4c(cc23)CCC4)CC1	8%	·	0.9	-0.8	7	0	1.5	-1
CC(NC(=O)C(=O)N1CCOCC1)C(c1cccs1)N1CCN(c2ccccc2)CC1 (stereo not drawn)	·	2.2	-0.8	-5.0	-7	7	-2.2	23
COCCN(CC(=O)NC1CCCCC1)C(=O)CCCC(=O)Nc1ccccn1	·	2.7	0.8	-1.8	-1	-7	-1.5	-2
O=C(Nc1ccc2c(c1)OCO2)Nc1ccc2c(c1)OCO2	-1%	-1.6	-2.7	?	7	-1	10	2
Cc1ccc(-c2cc3nc(-c4ccccc4)cc(N)n3n2)cc1	23%	·	-6.1	0.7	3	-2	1.5	-6
CCc1ccc(C2CC(c3ccc(C)cc3)Nc3nc(N)nn32)cc1 (stereo not drawn)	?	-0.5	0.7	-1.3	27	-7	-2.2	16
Cc1cc(-c2ccccc2)nc(N/N=C/c2ccco2)n1	?	·	0.9	-3.0	-7	5	1.1	?
CCOC(=O)c1c(C)c(C(=O)NCCN2CCOCC2)c(C)n1CC	6%	·	0.0	1.6	-4	-5	-3.6	-5
CC(C)C(NC(=O)OCc1ccccc1)C(=O)NC1CCCCC1 (stereo not drawn)	4%	·	0.8	-3.2	2	-6	1.5	-5
O=C(Cc1cccc(C(F)(F)F)c1)N1CCCC1	·	-23	0.1	1.2	-20	2	3.3	-8
C=CCN1C=CC(=CC=C(C#N)C#N)C=C1	13%	-9.9	1.0	21*	-5	6	-28	1
CC(C)(C)c1ccc(C(=O)N/C(=C/c2cccs2)C(=O)NCc2ccco2)cc1	·	·	-0.2	0.5	6	10	-2.5	-4
O=C(CSC1=NCCS1)Nc1ccc(S(=O)(=O)N2CCCCCC2)cc1	-1%	·	0.2	3.1	1	·	0.7	-5
CCOc1ccc(S(=O)(=O)N2CCCC(C(=O)NCc3ccco3)C2)cc1 (stereo not drawn)	·	-2.9	-0.2	1.3	5	-6	1.1	0
COc1ccccc1CNC(=O)CNCC1CCCO1 (stereo not drawn)	-1%	·	0.4	-3.8	-8	-2	0.1	-1
O=C(CCc1nnc(C2CCCCC2)o1)NCc1ccc(F)c(F)c1	29%	0.5	1.4	-2.0	11	-3	1.0	29
COc1ccc(NC(=O)CN2CCN(S(=O)(=O)c3ccc(Cl)cc3)CC2)cc1	6%	-4.9	0.4	7.6	1	·	-3.8	3
N#CCCN(Cc1cccnc1)C(=O)c1sc2cc(F)ccc2c1Cl	0%	0.3	-0.2	-3.0	39	1	-4.8	26
O=C(O)C1CCN(S(=O)(=O)c2cccs2)CC1	·	-1.0	0.6	0.3	-6	·	2.4	-19
CN(C(=O)c1ccc(NC(=O)Cc2cccc(NC(=O)C3CCCN(C(=O)CCc4ccccc4)C3)c2)cc1)C1CCCC1 (stereo not drawn)	·	-4.1	-0.2	·	·	3	2.4	·
CC(=O)Nc1ccc(OCC(=O)NC(C)C(C)C)cc1 (stereo not drawn)	5%	·	0.9	-4.6	4	-8	2.1	10
COc1ccc(OC)c(-c2cc(C(=O)N3CCN(c4ncccn4)CC3)c3ccccc3n2)c1	-6%	·	?	0.6	-12	6	-0.1	-12
COc1ccc(CN(C(C)=O)c2ccccc2C(=O)O)cc1	11%	-3.7	0.1	2.7	-14	1	1.3	4
O=C(c1ccc(Br)s1)N1CCN(S(=O)(=O)c2ccccc2)CC1	-10%	0.6	-0.3	-0.1	4	-3	6.8	0
CCc1ccc(N2CCN(C(=O)c3ccc4c(c3)OCO4)CC2)cc1	1%	-0.1	0.3	-2.6	3	-2	2.3	0
COc1cccc(NC(=O)C2CCC2)c1	·	3.3	-0.5	·	·	-2	4.2	·
CCC(=O)Nc1ccccc1N1CCN(S(C)(=O)=O)CC1	6%	·	-0.1	1.8	6	-4	16	1
Cc1nc2ccccn2c1C(=O)N/N=C/c1cc(C)n(-c2ccc(Br)cc2)c1C	7%	·	-0.7	8.8	7	-1	-4.4	34
CC(C)CC(c1nnnn1C(C)C)N1CCN(c2ccccc2)CC1 (stereo not drawn)	4%	·	0.0	-4.3	6	-9	4.7	-3
O=C(C1CCN(S(=O)(=O)N2CCOCC2)CC1)N1CCN(Cc2ccccc2)CC1	31%	·	0.3	-0.5	7	-9	-1.3	-8
COc1ccc([N+](=O)[O-])c(OC)c1C(=O)NC(=O)Nc1nc(C)cc(C)n1	-7%	-3.9	1.6	-1.6	·	·	-2.3	7
COc1ccc(Cc2nc3ccc(C(=O)NC4CCOC4)cc3o2)cc1 (stereo not drawn)	2%	-0.2	0.6	0.5	-8	-2	-1.0	-12
C=CCc1c(C)nc(SCc2nc3ccccc3c(=O)[nH]2)[nH]c1=O	-4%	·	-0.1	-2.5	-9	6	-5.6	2
CCO[C@@H]1OC(C(=O)NC2CC2)=C[C@H](c2ccccc2)[C@H]1CCCO	?	-0.4&-4.0	-0.7	3.8	-7	0	-3.7	8
O=C(O)c1ccc(Cl)c(S(=O)(=O)N(Cc2ccccc2)c2ccccc2)c1	-6%	0.3	-0.1	0.1	-3	-5	-4.3	12
Cc1nc(N)ncc1-c1ccc2c(c1)OCO2	1%	-0.2	1.3	-2.0	7	2	7.5	-6
COc1ccc(NC(=O)c2cccc(NC(=O)c3ccco3)c2)c(OC)c1	?	·	0.0	-3.0	7	4	-0.8	44
COC(=O)CSc1ncnc2c1cnn2Cc1ccccc1	10%	·	0.4	5.4	5	-12	1.9	9
O=S1(=O)c2ccccc2N=NN1Cc1ccc(Cl)c(Cl)c1	5%	·	0.5	6.5	-7	-10	6.4	-6
Cc1occc1C(=O)Nc1sc2c(c1C(N)=O)CCC(C(C)(C)C)C2 (stereo not drawn)	?	·	0.1	3.7	11	1	-2.8	-6
O=C(Nc1ccc2oc(-c3ccncc3)nc2c1)c1ccc([N+](=O)[O-])o1	·	1.3	0.3	2.0	16	47	-3.9	3

(continued)
SMILES	Vif A3G	AF4-AF9 inh	A1 inh	RanGTP-Imp inh	T cruzi inh	Beta cell apopt	LANA-H2B inh	Calb FLC
CCc1ccccc1NC(=O)N1C2CCCC1CC(NC(C)=O)C2 (stereo not drawn)	8%	·	-0.5	1.1	-13	-1	3.6	10
N#Cc1c(-c2ccccc2)nc(-c2cccnc2)[nH]c1=O	2%	-0.5	-0.3	-1.9	1	0	1.4	10
Cc1ccc(-c2nn(-c3ccccc3)cc2CSC(=N)N)cc1	-3%	·	1.2	0.1	12	19	-1.8	-4
CCN1CCC(=NNC(=O)c2ccco2)CC1	6%	·	0.5	1.4	-1	-1	3.2	-8
CN1C(C(=O)NCc2cccc(C(F)(F)F)c2)CC2Cn3c(nc4cc5ccccc5cc43)C21 (stereo not drawn)	4%	-9.3	1.2	-1.5	16	0	4.8	-5
O=[N+]([O-])c1cccc(/C=C/c2nc3ccc([N+](=O)[O-])cc3[nH]2)c1	4%	·	0.3	3.3	11	16	-1.6	29
c1ccn(-c2ccc(N3CCOCC3)cc2)c1	?	·	-2.9	1.0	-5	1	3.3	-7
COc1cccc(NC(=S)Nc2cccc3ccccc23)c1	·	-1.2	0.9	-4.3	20	13	-6.9	3
COC(=O)CN1C(=S)N(C)C(=O)C1CC(=O)Nc1ccccc1 (stereo not drawn)	-1%	5.4	-0.5	4.4	-7	2	1.1	3
CCOC(=O)N1CCN(C(=O)CN(C2CCCCC2)S(=O)(=O)c2ccc(F)cc2)CC1	-1%&-2%	·	-0.4	-2.0	0	-1	4.3	7
O=C(O)CN1CCN(Cc2ccccc2Cl)C1=O	-12%	·	-0.2	0.7	-8	-5	4.8	-11
COc1ccc(NC(=O)CS(=O)c2ccccc2Cl)cc1 (stereo not drawn)	-6%	-2.6	0.7	2.9	11	1	-3.5	45
